SARS PLP yeast: qHTS of Yeast-based Assay for SARS-CoV PLP; S. cerevisiae expressing SARS-CoV PLpro, growth rescue; control for the full effect not named in the record; Potency, µM (series often up to 32.9 µM), without a hit: at the highest dose activity, positive = growth rescue; 330,000 compounds, 0.19% hits; AID 485353, 2010; also: 0% is about no effect; nearly all actives have a fitted effect of over 55% in size; growth read by luminescence after 48 h
2A StopGo: High Throughput Screening for Foot and Mouth Disease Virus Antivirals | 410,000 compounds, 1.2% hits | Potency, µM (series often up to 57.9 µM), for the others: top-dose signal change, negative = less light | human cells with a luciferase reporter of 2A StopGo recoding; control for the full effect not named in the record | AID 1159524, 2015; active = well fitted falling curve with a large enough effect; inconclusive = small, poorly fitted or top-dose-only effect; inactive = no such curve, though single readings can be large or run the other way; tested in HEK293T cells; also: % is scaled to controls: 0 for no effect and ±100 for the full control effect; nearly all actives have a fitted effect of over 45% in size; luciferase light after 4 h
LASV entry inh: qHTS for Inhibitors of binding or entry into cells for Lassa Virus; Lassa virus pseudotype entry inhibition, cell reporter; control for the full effect not named in the record; Potency, µM (series often up to 37.9 µM), without a hit: top-dose activity change, negative = inhibition, hits mostly inhibitors; 300,000 compounds, 1.2% hits; AID 540256, 2011; active means well fitted inhibition curve with a large enough effect; inconclusive means small, poorly fitted or top-dose-only effect, or effect the other way; inactive means flat fitted curve, though single readings scatter; tested in HEK293 cells; also: % is scaled to controls: 0 for no effect and ±100 for the full control effect; nearly all actives have a fitted effect of over 50% in size; luciferase read-out
Cruzain Triton: qHTS Assay for Promiscuous and Specific Inhibitors of Cruzain (with detergent) | Cruzipain (Trypanosoma cruzi), P25779 | purified cruzain, Z-FR-AMC fluorescence, 0.01% Triton | Potency, µM, for inactives: max response, negative = inhibition, most hits filed as inhibitors | 200,000 compounds, 0.43% hits | AID 1478, 2009; active = well fitted curve in the direction sought with a large enough effect; inconclusive = small, poorly fitted or top-dose-only effect, or another doubt; inactive = no such curve, though single readings can be large; an effect the other way counts as inactive or inconclusive;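 also: plate controls were neutral wells for no effect and buffer without enzyme for full effect; nearly all actives have a fitted effect of over 40% in size; top concentration of the series not given in the record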
Target sequence (P25779 123-467 limits assumed): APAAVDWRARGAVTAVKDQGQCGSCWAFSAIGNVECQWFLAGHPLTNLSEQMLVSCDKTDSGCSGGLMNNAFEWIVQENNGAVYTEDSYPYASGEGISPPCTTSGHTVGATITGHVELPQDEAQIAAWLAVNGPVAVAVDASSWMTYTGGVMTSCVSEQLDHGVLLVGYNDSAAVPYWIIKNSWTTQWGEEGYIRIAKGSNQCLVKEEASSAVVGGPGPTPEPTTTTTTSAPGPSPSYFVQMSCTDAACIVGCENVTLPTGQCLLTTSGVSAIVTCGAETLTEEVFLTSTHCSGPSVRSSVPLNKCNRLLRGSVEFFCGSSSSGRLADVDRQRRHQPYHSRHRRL
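In this qHTS format, compounds are incubated with 1.5 nM cruzain for 15 min at room temperature before 2 uM Z-FR-AMC is added. Release of AMC is followed at 360/450 nm, and progress is taken as the 60 s fluorescence difference.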
Cruzain inh noDet: qHTS Assay for Promiscuous and Specific Inhibitors of Cruzain (without detergent); 200,000 compounds, 2.3% hits; purified cruzain, Z-FR-AMC fluorescence, no detergent; AID 1476, 2009; Cruzipain (Trypanosoma cruzi), P25779; Potency, µM, for inactives: max response, negative = inhibition, usual class: inhibitors; active = well fitted curve in the direction sought with a large enough effect; inconclusive = small, poorly fitted or top-dose-only effect, or another doubt; inactive = no such curve, though single readings can be large; an effect the other way counts as inactive or inconclusive;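 also: plate controls were enzyme without inhibitor for no effect and buffer without enzyme for full effect; nearly all actives have a fitted effect of over 40% in size; top concentration of the series not given in the record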
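Detergent-free condition (0.00005% Triton X-100) in acetate buffer pH 5.5 with DTT. 1.5 nM enzyme and compound were pre-mixed 15 min, then 2 uM Z-FR-AMC substrate added; reaction progress from fluorescence change between first and third reads (60 s).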
RE007 growth inh: qHTS Assay for Inhibitors of the HIV-1 protein Vpr. 360,000 compounds, 0.21% hits. S. pombe RE007 Vpr strain, BacTiter-Glo ATP luminescence, 24 h; control for the full effect not named in the record. Potency, µM (highest dose often 92.2 µM), for inactives: at the top dose activity change, negative = less growth. AID 651644, 2012; active = well fitted falling curve with a large enough effect; inconclusive = small, poorly fitted or top-dose-only effect; inactive = no such curve, though single readings can be large or run the other way;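 also: % is scaled to controls: 0 for no effect and ±100 for the full control effect; nearly all actives have a fitted effect of over 50% in size; the assay follows cell death caused by Vpr and the record does not say whether a fall means rescue or toxicity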
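Fission yeast strain RE007, carrying one chromosomally integrated HIV-1 vpr copy, was seeded at OD 0.01 in PMG+AL medium with 23 nL pinned compound. After 24 h at 30 °C and 99% humidity, viability was read by BacTiter-Glo luminescence.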
NS1 inh: qHTS Assay for Inhibitors of Influenza NS1 Protein Function. S. cerevisiae slowed by influenza A NS1, growth recovery by OD600. Potency, µM (top dose mostly 46.1 µM), for the others: at the top dose activity, positive = more growth. 270,000 compounds, 0.4% hits; also: actives are rising curves; nearly all actives have a fitted effect of over 50% in size
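Compounds were scored for reversing the slow growth caused by influenza A NS1 in S. cerevisiae, measured by optical density at 600 nm. Assay medium contained 2% galactose at pH 6.0; NS1-free yeast of the same strain were the positive control.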
Marburg entry inh: qHTS for inhibitors of binding or entry into cells for Marburg Virus | Marburg virus pseudotyped entry inhibition, cell reporter; control for the full effect not named in the record; about a third of the inactives were read at about 46 µM | Potency, µM (doses to about 37.8 µM), without a hit: top-dose activity change, negative = inhibition, most hits filed as inhibitors | 300,000 compounds, 1.8% hits; active = well fitted inhibition curve with a large enough effect; inconclusive = small, poorly fitted or top-dose-only effect, or effect the other way; inactive = flat fitted curve, though single readings scatter; tested in HEK293 cells; about a fifth of its hits are not listed in these tables; also: % is scaled to controls: 0 for no effect and ±100 for the full control effect; luciferase read-out
The depositor's hits bear a star; ? = inconclusive; / = not tested or not shown; & = joins results of further samples; [ ] = another dose, or the depositor's remark. Unless noted, calls follow the shape of the dose curve; as a rule, active means well fitted rising curve with a large enough effect; inconclusive means small, poorly fitted or top-dose-only effect; inactive means no such curve, though single readings can be large or run the other way. Potency is read from the fitted curve at half-maximal effect.

smiles	RE007 growth inh	LASV entry inh	NS1 inh	Marburg entry inh	Cruzain Triton	SARS PLP yeast	2A StopGo	Cruzain inh noDet
Cc1c(C(=O)Nc2cc(F)ccc2F)sc2nc3n(c(=O)c12)CCCCC3	7%	19%[46.1 µM]	1%	15%[46.1 µM]	/	2%	0%	/
CN(C)c1ccnc2sc3c(=O)n(Cc4ccccc4)cnc3c12	4%	-10%	-53%	12%	-2.0%	-2%	-3%	-2%
COc1ccccc1NC(C)=O	6%	0%	0%	10%	8.4%	5%	0%	4%
CC(=O)NC(=O)Nc1sc(=S)n(C)c1C	-7%	4%	9%	7%&7%[46.1 µM]	-0.4%	3%	?	-9%
Cc1ccccc1-n1c(SCC(=O)N/N=C/c2sccc2C)nc2ccccc2c1=O	-12%	1%	13%	?	-6.3%	7%	-6%	?
O=C(c1ccccc1Cc1ccccc1)N1CCN(S(=O)(=O)c2ccccc2)CC1	5%	?	14%	?	/	2%	0%	/
CC(=O)c1ccccc1NC(=O)CSc1nnc2ccccn12	/	/	11%	-9%	2.5%	-3%	/	-8%
Cc1nnc(NC(=O)c2oc3c(ccc4ccccc43)c2C)s1	-12%	-17%	-50%	-2%	-6.0%	6%	9%	10%

The results go on:
smiles	RE007 growth inh	LASV entry inh	NS1 inh	Marburg entry inh	Cruzain Triton	SARS PLP yeast	2A StopGo	Cruzain inh noDet
CCOc1cc2c(cc1O)C(=NO)CC1C2CCC2(C)C(O)CCC12 (stereo not given)	-18%	?	/	?	/	/	0%	/
CCS(=O)(=O)CCSP(=O)(OC)OC	0%	-8%	/	?	/	/	-9%	/
Cc1nc2ccc(NC(=O)N3CCC(c4ccccc4)C3)cc2nc1C (stereo not given)	-11%	-2%	-3%	1%	-9.4%	-1%	-4%	?
COc1ccc(/C=C/C(=O)c2cc(Br)ccc2O)cc1OC	-7%	/	0%	/	/	0%	-24%	/
CCOC(=O)c1c(CN2CCN(c3ccccc3)CC2)oc2ccc(O)cc12	20%	?	-78%	-26%	-6.2%	4%	-19%	-14%
Cc1ccc(C(C(=O)NCc2ccccc2)N(Cc2cccs2)C(=O)c2ccc3c(c2)OCCO3)cc1 (stereo not given)	13%	6.5µM*	17%	6.5µM*	-3.0%	?	-13%	-1%
CCOC(=O)c1c(S(=O)(=O)N2CCC(C(=O)N3CCN(c4cccc(C)c4C)CC3)CC2)c(C)n(C)c1C	/	-26%[46.1 µM]	/	/	-5.1%	/	-18%	?
Cc1cc(N2CC34C=CC(O3)C(C(=O)O)C4C2=O)no1 (stereo not given)	-12%	4%	-2%	?	-1.0%	0%	12%	6%

Remaining list, next part
smiles	RE007 growth inh	LASV entry inh	NS1 inh	Marburg entry inh	Cruzain Triton	SARS PLP yeast	2A StopGo	Cruzain inh noDet
CN(C)/C=C/C(=O)c1ccccc1F	-14%[3.69 µM]	-11%	5%	23%	-2.2%	1%	0%	-9%
COc1cccc(OC)c1C(=O)N1CCN(S(=O)(=O)c2ccccc2)CC1	7%	1%	4%	?	-2.1%	-7%	-15%	4%
CCOC(=O)C1CCN(S(=O)(=O)c2ccc(OC)c(Cl)c2Cl)CC1	8%	-13%	4%	6%	-9.6%	7%	/	9%
O=C(O)C(Sc1ccncn1)c1ccccc1 (stereo not given)	16%	/	6%	/	/	-1%	7%	/
CCCNC(=O)Cn1nc(C(F)(F)F)cc1C	0%	2%[46.1 µM]	1%	0%&0%[46.1 µM]	/	1%	-2%	/
CC(C)CCN1C(=O)N(c2ccccc2)C(=O)C1CC(=O)Nc1ccc(Cl)cc1 (stereo not given)	/	-15%[46.1 µM]	/	/	-5.5%	/	28%	-2%
CCC1COCCS(=O)(=O)N1Cc1ccc(C)cc1 (stereo not given)	6%	/	-14%	/	/	-9%	-10%	/
CCOC(=O)c1cccc(NC(=O)CC2C(=O)N(c3ccc(Cl)cc3)C(=O)N2C2CCCC2)c1 (stereo not given)	/	-24%[46.1 µM]	/	/	-7.7%	/	-23%	4%

Continuation.
smiles	RE007 growth inh	LASV entry inh	NS1 inh	Marburg entry inh	Cruzain Triton	SARS PLP yeast	2A StopGo	Cruzain inh noDet
FC(F)(F)Oc1ccc(NC2=NCCCS2)cc1	-22%	/	3%	/	/	-2%	28%	/
COc1ccc(CN2CCN(C(=O)CC(C)C)CC2)c(OC)c1OC	4%	-7%	0%	11%	10%	0%	-16%	2%
O=C(CN(Cc1ccccc1)C(=O)c1csnn1)NCc1ccccc1	0%	?	2%	0%[46.1 µM]	/	-1%	1%	/
O=C(Cc1cccs1)NC1CC(=O)N(c2ccccc2)C1 (stereo not given)	/	?	/	/	0.0%	/	-22%	4%
Cc1nnc(SCC(=O)Nc2ccccc2)[nH]c1=O	0%	-2%	3%	23%	2.7%	-1%	8%	12%
Cc1cc(C)c(S(=O)(=O)Nc2ccc(Cl)cn2)c(C)c1	-7%	2%	-3%	-19%	/	4%	82%[activator]	/
O=C(CN1CCCC1)Nc1ccc(Br)cc1[N+](=O)[O-]	-8%	/	0%	/	/	0%	30%[activator]	/
O=C(Nc1ncc(Cc2cccc(C(F)(F)F)c2)s1)C1CCCO1 (stereo not given)	9%	/	?	/	/	-6%	8%	/

(continued)
smiles	RE007 growth inh	LASV entry inh	NS1 inh	Marburg entry inh	Cruzain Triton	SARS PLP yeast	2A StopGo	Cruzain inh noDet
CCOc1ccccc1NC(=O)C1CCCN(S(=O)(=O)c2ccc3c(c2)CCCN3C(C)=O)C1 (stereo not given)	2%	-23%[46.1 µM]	/	/	-5.8%	/	-9%&-24%	?
O=C(N(c1ccccc1)c1ccccc1)N(c1ccccc1)c1ccccc1	9%	/	-4%	5%	/	-2%	-29%	/
CC(C)(C)OC(=O)N1CCCC(C(=O)CC#N)C1 (stereo not given)	-2%	3%	?	?	-5.3%	-4%	-18%	?
COc1ccccc1N(Cc1ccccc1)S(=O)(=O)c1cccc(C(=O)NC2CC(C)(C)NC(C)(C)C2)c1	0%	?	/	?	/	2%	8%	/
C/C=C\C=C\C(=O)N1CC2(CC(c3cccc(NC(=O)CC)c3)=NO2)C[C@H]1C(N)=O (stereo not given in full)	-3%	/	-4%	/	/	2%	-1%	/
N#CC1=C(N)Oc2c(c(=O)oc3ccccc23)C1c1ccncc1 (stereo not given)	1%	10%	10%	13%	0.1%	-5%	23%	-4%
Cc1cc(=O)n2nc(N3CCC(C(=O)NCc4cccc(Br)c4)CC3)sc2n1	-8%	/	2%	/	/	2%	1%	/
COc1ccc(/C=N/Nc2nc3ccccc3o2)cc1O	-11%	?	-2%	?	-4.9%	-8%	-38%	-17%

Other compounds follow.
smiles	RE007 growth inh	LASV entry inh	NS1 inh	Marburg entry inh	Cruzain Triton	SARS PLP yeast	2A StopGo	Cruzain inh noDet
COc1ccccc1NC(=O)CN1C(=O)COc2ccc(C)cc21	-9%	-26%	-15%	-14%	/	0%	-21%	/
Cc1c(NC(=O)c2cccs2)cccc1[N+](=O)[O-]	?	4%	-3%	27%[46.1 µM]	/	-1%	-9%	/
O=C(Nc1cccc(Oc2ccc(C(=O)O)c(C(=O)O)c2)c1)c1ccc(-c2ccccc2)cc1	11%	/	13%	/	/	-1%	-16%	/
COc1cc(/C=C/CO)cc(OC)c1OC/C=C(\C)CCC=C(C)C	6%	/	8%	/	/	0%	-20%	/
Cc1ccc(S(=O)(=O)N(CC(=O)N/N=C/c2ccco2)c2cc(Cl)cc(Cl)c2)cc1	9%	?	18%	16µM*	-7.9%	-5%	2%	1%
CN1CCc2c(sc(NC(=O)Cc3ccc(F)cc3)c2C(N)=O)C1	0%	/	-10%	/	/	-5%	-3%	/
O=C(CS(=O)c1cccc(C(F)(F)F)c1)Nc1ccc(Cl)cc1Cl (stereo not given)	-19%	-3%	-11%	-8%	-1.2%	-24%	11%	-2%
CC[C@H](C)[C@@H](C(=O)N1CCNCC1)n1cc([C@@H](N)CC(C)C)nn1	-21%	/	-8%	/	/	0%	-13%	/

(listing goes on)
smiles	RE007 growth inh	LASV entry inh	NS1 inh	Marburg entry inh	Cruzain Triton	SARS PLP yeast	2A StopGo	Cruzain inh noDet
Oc1c(Br)cc(Br)cc1CN1CCN(Cc2ccccc2)CC1	11%	-2%	2%	2%	-2.1%	-12%	-22%	2%
Cc1noc(C)c1CCC(=O)N1CCCC(CO)(Cc2ccccc2)C1 (stereo not given)	0%	-10%[46.1 µM]	-5%	?	/	-1%	17%	/
COc1ccc(CN2C(=O)c3ccccc3C2OC)cc1 (stereo not given)	3%	/	7%	/	/	2%	6%	/
Cc1ccc(F)c([C@H]2[C@H]3C=CC[C@@H](C)[C@@H]3C(=O)N2Cc2ccccc2)c1	-7%	/	?	/	/	-16%	?	/
CCOC(=O)c1sc(NC(=O)CSc2n[nH]c(-c3ccccc3)n2)c(C#N)c1C	-4%	-13%	-112%	?	-12%	-25%	0%	-18%
O=C1CCCC2=C1C(c1ccccc1)n1c(s/c(=C/c3cccc(F)c3)c1=O)=N2 (stereo not given)	16%	-6%	-25%	-1%	-4.1%	0%	0%	-1%
Cc1ccccc1NC(=S)N(CCN1CCCCCC1)Cc1cccs1	8%	3%[46.1 µM]	/	?	/	-2%	-4%	/
Cc1nc2ccccn2c1C(=O)NNS(=O)(=O)c1ccc(C(C)(C)C)cc1	0%	?	-3%	?	-3.7%	4%	?	-16%
O=c1c(Cl)c(N2CCN(c3ccc(F)cc3)CC2)cnn1-c1nc2ccccc2s1	-3%	-38%	0%	?	2.9%	6%	17%	?
CCOC(=O)N1CCN(C(c2ccc(C)cc2)c2sc3nc(C)nn3c2O)CC1 (stereo not given)	4%	/	6%	/	/	1%	4%	/
Clc1ccc(-c2nn3c(-c4ccccc4)nnc3s2)cc1	-3%	17%	1%	?	-0.9%	4%	0%	-10%

Screens (PubChem)
